Autofluor counter – flagged as autofluorescent in microsphere protease counterscreen; compound autofluorescence counterscreen, microsphere flow cytometry; stronger effect = higher value; 360,000 compounds, 3.1% hits; fluorescence intensity (test concentration not listed);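 active = at least 3 SD above the mean of all compounds, about 16000 in these data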;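 note: 100 nL of 1 mM stock went into each well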
ugtP null kill – kills S. aureus RN4220 lacking UgtP. S. aureus RN4220 ugtP deletion, OD600 growth, 16 h; some inactives read as strong as hits. growth inhibition, % (test concentration not listed). 330,000 compounds, 0.54% hits. AID 1259309;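 active = z-score under -3 and OD600 up to 0.15 on both plates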;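 note: plate controls were untreated wells for no effect and antibiotic for full effect; wells of about 80 µL received 100 nL stock; the first replicate is given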
Mtb hypoxia inh – reduces hypoxia-regulated biosensor signal in M. tuberculosis; M. tuberculosis hypoxia-regulated fluorescent reporter, fluorescence; fluorescence inhibition, % (test concentration not listed); 300,000 compounds, 0.1% hits; AID 1159583;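 active = 35 to 45% if threefold the growth effect, above 45% if 1.5-fold the growth effect; inactive = the rest, general growth blockers included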;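 note: wells of about 50 µL received 100 nL stock; 0% = vehicle wells and 100% = reference inhibitor wells; whole bacteria with a GFP reporter of the hypoxia response; strong numbers were not always called active; many hits fall short of the cut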
Sa RN4220 lethal – S. aureus RN4220 growth inhibition | AID 1259311 | inhibition, % (concentration not given with the values) | OD600, 16 h | 330,000 compounds, 0.33% hits;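 active = z-score of -3 or lower and OD600 up to 0.18 on both plates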;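 note: plate controls were untreated cells for no effect and reference antibiotic for full effect; stock transfer was 100 nL into about 80 µL; one replicate is shown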
BJeLR lethal – kills HRASV12-expressing BJeLR cells | BJeLR (HRASV12) viability, CellTiter-Glo ATP luminescence, 48 h; reference of the scale not given here | inhibition, % (no concentration beside the values) | 300,000 compounds, 0.17% hits;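 active = replicate mean above 50%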;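 note: 50 nL library stock added to about 25 µL; numbers are from one replicate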
PrP UTR inh – inhibition of PrP 5' UTR reporter expression; cell-based PrP 5' UTR mRNA reporter, plate reader; inhibition, % (concentration not given with the values); 340,000 compounds, 0.35% hits; AID 488862;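 active = every replicate at 50% or more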;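 note: 0 = median of the neutral control wells; tested in H4 reporter cells; numbers are from one replicate; inactives centre near -14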
Mtb hypoxia inh growth – also measured in Mtb hypoxia inh; calls as there; growth inhibition, %; measured here: M. tuberculosis growth (absorbance);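 0% = vehicle and 100% = reference antibiotic; read after six days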
Active calls of the source: *; / = no result given.

SMILES	Autofluor counter	ugtP null kill	Mtb hypoxia inh	Mtb hypoxia inh growth	Sa RN4220 lethal	BJeLR lethal	PrP UTR inh
CSCCC(NC(=O)c1ccco1)C(=O)N1CC(C)OC(C)C1 (configuration not stated)	5521	-2.5	-10.8	3.8	-2.2	/	-1.8
CCN(CC)S(=O)(=O)c1ccc(NC(=O)c2cccc3c2C(=O)N(CCOC)C3)cc1	2517	-1.6	-2.7	0.9	3.4	-5.6	-7.9
CCC(C(=O)NC1CC(C)(C)NC(C)(C)C1)c1ccccc1 (configuration not stated)	3926	8.0	0.4	-1.0	3.1	-4.4	-20.3
CCc1cc2c(NCc3ccccc3)nc(C)nc2s1	3868	-17.0	10.9	14.9	-4.6	7.1	-32.7
CCCOc1ccc(NC(=O)C2CC(=O)N/C(=N/N=C(C)CCc3ccc4c(c3)OCO4)S2)cc1 (configuration not stated)	/	-4.7	6.2	7.9	-0.5	/	/
COc1cccc(C=NNC(=O)Cn2nnc3ccccc32)c1O	/	10.6	17.8	-5.4	5.3	/	/
O=C(NC1CC1)C1CCN(C2CCN(C(=O)CSc3ccccc3)CC2)CC1	3435	0.7	-3.4	-0.8	3.9	-5.6	-14.4
O=C1C2C3C=CC(C3)C2C(=O)N1c1cccc2ccccc12 (configuration not stated)	3795	-3.5	6.5	9.0	6.6	-18.3	-25.5
O=C(N/N=C/c1ccc(N2CCOCC2)o1)c1cccc(F)c1	3859	/	/	/	/	-6.9	-10.0
Cc1ccccc1N1CC(C(=O)O)CC1=O (configuration not stated)	4758	1.1	2.8	6.9	3.1	4.8	-28.0
Cc1c(Cl)c([N+](=O)[O-])nn1CCCC(=O)Nc1cccc(O)c1	4502	10.2	12.6	-8.7	6.0	3.0	-0.7
COc1ccc(CCNC(=O)CCCn2c(SCC(N)=O)nc3cc4c(cc3c2=O)OCO4)cc1OC	/	6.1	8.7	3.9	-0.3	-9.7	/

Profiles, quoted from the list. Screens in order: Autofluor counter	ugtP null kill	Mtb hypoxia inh	Mtb hypoxia inh growth	Sa RN4220 lethal	BJeLR lethal	PrP UTR inh
O=C(N/N=C/c1ccc(N2CCOCC2)o1)c1cccc(F)c1 is listed as 3859	/	/	/	/	-6.9	-10.0
CCCOc1ccc(NC(=O)C2CC(=O)N/C(=N/N=C(C)CCc3ccc4c(c3)OCO4)S2)cc1 (configuration not stated) is listed as /	-4.7	6.2	7.9	-0.5	/	/
O=C(NC1CC1)C1CCN(C2CCN(C(=O)CSc3ccccc3)CC2)CC1 is listed as 3435	0.7	-3.4	-0.8	3.9	-5.6	-14.4

Taken from above:
For Sa RN4220 lethal, COc1cccc(C=NNC(=O)Cn2nnc3ccccc32)c1O has the entry 5.3
For Sa RN4220 lethal, COc1ccc(CCNC(=O)CCCn2c(SCC(N)=O)nc3cc4c(cc3c2=O)OCO4)cc1OC has the entry -0.3

Additional records follow:
SMILES	Autofluor counter	ugtP null kill	Mtb hypoxia inh	Mtb hypoxia inh growth	Sa RN4220 lethal	BJeLR lethal	PrP UTR inh
Cc1cc(C(=O)Cn2cncn2)c(C)n1CCc1ccc(F)cc1	4442	3.7	/	/	1.2	9.9	-5.6
Cc1ccc(-c2ccc(CCC(=O)O)n2NC(=O)c2ccco2)cc1	3144	-2.4	4.6	-2.3	3.3	-3.4	-17.9
Cc1ccc(NC(=O)Nc2cc(Cl)ccc2C2COC(=O)C2=N)cc1 (configuration not stated)	4342	-7.7	-3.2	2.0	1.0	-8.6	-42.1
COc1ccc(CCNC(=O)CN2CCC(C(N)=O)CC2)cc1	6360	-0.6	-8.7	-0.6	-2.7	-6.3	-8.7
Cc1ccc(NC(=O)CSc2nnc3ccc(-c4cccnc4)nn23)cc1	5812	6.2	1.2	-2.0	-0.1	-1.4	-13.2
COc1ccc(NC(=O)c2cc(-c3cccnc3)nc3ccc(C)cc23)cc1OC	10917	6.5	2.3	5.1	3.7	/	-10.0
CCC(Sc1nc2ccccc2s1)C(=O)Nc1cc(C)on1 (configuration not stated)	3585	7.0	/	/	-4.9	0.6	-22.0
CCCCNC(=O)CCCCCn1c(=O)[nH]c2cc(OC)c(OC)cc2c1=O	19264*	0.0	4.7	5.7	2.2	-2.4	-2.4
C#CCOCCOCCOCCNc1nc(N2CCN(C(=O)C(CCC(=O)O)n3cc(C(N)CO)nn3)CC2)nc(N2CCN(C(=O)C(Cc3ccc(O)cc3)n3cc(C(N)CC(C)C)nn3)CC2)n1 (configuration not stated)	/	-4.7	7.0	-6.3	0.8	/	/
CC(C)(C)C1C=C(C(=O)NC2CC2)OC(OCCCCO)C1 (configuration not stated)	/	3.0	-4.1	-10.3	8.4	/	/
COc1ccc(N2CCN(c3ccc(Cl)nn3)CC2)cc1	5058	4.3	0.1	1.6	3.3	-1.9	-44.8
CC(C)c1ccc2c(c1)C(N1CCN(C)CC1)Cc1cccnc1S2 (configuration not stated)	4601	3.0	12.6	4.0	0.6	-9.2	-12.1
COc1ccc2[nH]c(C)c(CCNC(=S)Nc3cccc(C)c3C)c2c1	4546	4.6	0.0	10.4	-0.2	-3.0	1.6
CCOC(=O)CSc1nc2c(sc(=S)n2-c2ccc(OCC)cc2)c(=O)[nH]1	4224	13.2	4.1	2.0	4.1	-2.9	-15.6
CCc1noc(N)c1C(=O)Nc1ccc(Cl)cc1	4163	/	/	/	/	-5.6	-14.1
Cc1cccc(N2CCN(S(=O)(=O)c3ccc(-c4ccc(=O)[nH]n4)o3)CC2)c1C	5803	6.0	-2.1	7.1	0.5	-0.3	0.5
COc1ccccc1-c1ccc(Nc2ccc(C(=O)N3CCOCC3)cc2)nn1	2787	7.2	/	/	-3.4	/	1.9
C=CCNC(=O)/C(C#N)=C/c1c(N2CC(C)OC(C)C2)nc2ccccn2c1=O (configuration not stated)	2039	8.3	5.6	8.8	5.7	4.5	-21.7
ClCCn1cnc2c(SCc3ccccc3Cl)ncnc21	3940	20.8	14.9	12.6	1.8	/	24.2
CC(=NNC(=O)COc1cc(C)cc(C)c1)c1ccc(N2CCOCC2)cc1	/	0.8	9.1	4.6	6.9	/	/
CCOP(=O)(OCC)C(Nc1ccc(F)cc1)c1ccccc1 (configuration not stated)	4674	-2.7	-3.6	-5.5	-2.8	-5.0	-26.4
Cc1ccc(NC(=O)CSc2nnc(-c3ccco3)o2)cc1	4323	1.6	-6.2	7.1	4.6	-4.0	-25.1
N#CCC1c2ccccc2CCN1C(=O)Nc1ccc(C(F)(F)F)cc1 (configuration not stated)	16726*	-15.9	-0.9	18.5	-2.8	-9.2	-2.8
O=S1(=O)CCC(NC(=S)Nc2ccc(Cl)cc2)C1 (configuration not stated)	2523	3.3	-3.4	6.6	1.1	0.1	-37.6
O=C(CN1C(=O)c2ccccc2S1(=O)=O)NCCSCc1c(F)cccc1Cl	5270	3.1	-5.2	-1.3	-4.1	-7.2	-7.9
O=C(CSc1nc2ccccc2[nH]1)NCCc1ccc(Cl)cc1	2512	-14.3	-8.0	4.8	1.2	-23.0	-12.6
CC(=O)c1ccc(NC(=O)CSc2nc(=O)n3cccc(C)c3n2)cc1	5072	2.2	1.5	4.4	7.3	2.0	-8.6
CCCc1cc(=O)oc2c(C)c(OCC(=O)N3CCC[C@@H]3C(=O)O)ccc12	5432	8.3	/	/	1.7	-0.2	-16.5
CCCCN(C(=O)c1ccc2ccccc2c1)c1c(N)n(CCCC)c(=O)[nH]c1=O	5209	2.9	5.0	2.5	2.3	/	-7.9
CCC(=O)N1CCc2cc(Br)cc(S(=O)(=O)N3CCC(C(=O)NC(C)C)CC3)c21	5982	2.7	1.6	-3.8	3.7	-6.3	-24.5
CCCN1CCc2nc(SCC(=O)Nc3ccc(C)c(Cl)c3)[nH]c(=O)c2C1	5465	4.0	7.3	8.0	-0.3	-3.8	1.7
CC(NC(=O)CSc1nc2sc3c(c2c(=O)n1-c1ccccc1)CCCC3)c1ccccc1 (configuration not stated)	7088	2.6	-10.1	-15.7	-7.5	-2.2	-17.4
O=C(CCN1CCN(S(=O)(=O)c2ccc(Br)cc2)CC1)Nc1ccccc1F	4010	-0.7	10.1	14.5	4.8	8.0	-25.5
N#CCC(=O)N/N=C/c1c2ccccc2cc2ccccc12	5876	/	/	/	/	-0.5	-3.0
Cc1ccc(N2C(=N)/C(=C3/Nc4ccccc4S3)C(c3ccccc3)C2=O)cc1 (configuration not stated)	2401	66.8	-3.6	14.8	27.7	/	-42.4
CCOC(=O)N1CCC(N2C(=O)c3ccccc3C2=O)CC1	6433	-4.3	8.0	15.5	-10.4	6.3	-18.3

In the list so far, these have a COOH group.
SMILES	Autofluor counter	ugtP null kill	Mtb hypoxia inh	Mtb hypoxia inh growth	Sa RN4220 lethal	BJeLR lethal	PrP UTR inh
Cc1ccccc1N1CC(C(=O)O)CC1=O (configuration not stated)	4758	1.1	2.8	6.9	3.1	4.8	-28.0
Cc1ccc(-c2ccc(CCC(=O)O)n2NC(=O)c2ccco2)cc1	3144	-2.4	4.6	-2.3	3.3	-3.4	-17.9
C#CCOCCOCCOCCNc1nc(N2CCN(C(=O)C(CCC(=O)O)n3cc(C(N)CO)nn3)CC2)nc(N2CCN(C(=O)C(Cc3ccc(O)cc3)n3cc(C(N)CC(C)C)nn3)CC2)n1 (configuration not stated)	/	-4.7	7.0	-6.3	0.8	/	/
CCCc1cc(=O)oc2c(C)c(OCC(=O)N3CCC[C@@H]3C(=O)O)ccc12	5432	8.3	/	/	1.7	-0.2	-16.5

Next section
SMILES	Autofluor counter	ugtP null kill	Mtb hypoxia inh	Mtb hypoxia inh growth	Sa RN4220 lethal	BJeLR lethal	PrP UTR inh
CCOc1ccccc1CN1CCC(CO)(CCOc2ccccc2)CC1	2659	-0.8	10.0	2.7	4.8	2.6	-18.9
Cc1ccc(C)c(NC(=O)Cn2nnc(-c3ccc(N4CCOCC4)cc3)n2)c1	3912	0.0	0.9	9.4	0.7	-2.1	-41.8
CCOc1ccc(C(C)=O)cc1CSC(=N)N	4245	3.4	1.4	-6.7	0.2	6.7	-16.9
COc1ccc(SCC(CC(C)C)N2CCN(C)CCC2=O)cc1 (configuration not stated)	/	-7.7	13.9	5.8	4.3	/	/
O=C(C[N+]12CC[N+](CC(=O)c3ccc(F)cc3)(CC1)CC2)c1ccc(F)cc1	2958	7.4	5.9	1.1	3.4	7.3	-14.1
O=C(CSc1cn(CC(=O)N2CCOCC2)c2ccccc12)N1CCOCC1	4917	4.5	0.2	2.4	-1.4	2.1	1.9
CC(C)C(=O)Nc1ccc(NC(=O)c2cccc(F)c2)cn1	4815	0.8	/	/	-2.4	-4.6	-37.5
CC(=O)Oc1cccc(C(=O)Nc2c[nH]c(=O)[nH]c2=O)c1	3657	11.2	-2.9	-11.6	4.1	-2.2	-30.2
COCC(=O)Nc1cc(OC)c(Cl)cc1OC	3826	-2.8	8.0	9.7	3.1	-10.4	-24.9
CCOC(=O)c1ccc(N=C(CC)c2c(O)n(C)c(=O)n(C)c2=O)cc1	3449	8.0	8.0	1.5	5.2	1.7	-0.2
CCOCCc1c(O)nc(SCC(=O)NCc2ccco2)[nH]c1=O	3243	2.3	9.4	3.6	0.7	9.1	-14.4

Assay outcomes (PubChem BioAssay)
